Assay outcomes as filed in PubChem BioAssay.
Hsc70: Hsc70 inhibitors, probe displacement, primary screen, biochemical, fluorescence polarization (AID 568); 83,000 tested, under 10 active; Hsc70 fluorescence polarization, probe displacement; higher % means a stronger effect; strong numbers were not always called active; displacement, % at 20 µM; hits with a dose series show IC50 in µM;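 active means displacement above 50% without optical interference and an IC50 on retest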;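 further: ATPase domain with a fluorescein-tagged ATP probe; 0% = vehicle and 100% = excess ADP; read after one hour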
WNV protease inh: WNV NS2B-NS3 proteinase inhibition | P06935 | AID 577 | z-score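 (tested at a level between 10 and 100 µM)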 | WNV NS2B-NS3 protease, fluorogenic substrate Ex360/Em465; stronger effect = lower value | hit rate 0.18% among 65,000;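 active means z-score at -3 or under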;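 further: score is relative to mean and spread of the compound wells of a plate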
Target sequence (P06935 1371-1501 limits assumed): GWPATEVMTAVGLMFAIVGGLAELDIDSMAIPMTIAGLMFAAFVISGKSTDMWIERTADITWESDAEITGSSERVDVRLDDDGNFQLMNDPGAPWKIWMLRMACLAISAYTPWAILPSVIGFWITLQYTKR
Target sequence (P06935 1502-1679 limits assumed): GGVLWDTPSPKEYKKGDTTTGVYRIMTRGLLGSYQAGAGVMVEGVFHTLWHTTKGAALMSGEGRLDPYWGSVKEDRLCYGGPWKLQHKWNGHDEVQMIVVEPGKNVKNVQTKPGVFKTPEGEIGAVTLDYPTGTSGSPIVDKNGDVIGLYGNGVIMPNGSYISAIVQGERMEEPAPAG
MT1-MMP promoter: inhibitors of MT1-MMP promoter transcription, cell-based, luciferase reporter, luminescence (AID 618); hit rate 0.62% among 87,000; calls from a first round at 10 µM; hits with a dose series show EC50 in µM; MT1-MMP promoter luciferase reporter cells, luminescence;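 active means over half of the reporter light lost at 10 µM or EC50 under 50 µM; inactive means the rest and hits that failed the dose series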;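 further: actives suppress MT1-MMP promoter-driven transcription so potencies describe inhibitors; HT1080 fibrosarcoma cells; overnight exposure; toxic or luciferase-blocking compounds were not removed from the actives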
Active calls of the source: *; i = inactive; x = no result given; + = active, no number; & = joins results of further samples. Compounds as they come; 0.87% or so of the library scored in one or more.

Start of the listing, in advance:
SMILES	Hsc70	WNV protease inh	MT1-MMP promoter
CCN(CC)S(=O)(=O)N1CCC(C(=O)NCC2COc3ccccc3O2)CC1 (centres undefined)	0.9%	-0.15	i
O=C(Nc1ccc(N2CCN(Cc3ccccc3Cl)CC2)cc1)c1cccnc1	0.9%	1.3	i
COc1ccc(Cc2nn3c(-c4ccccc4Br)nnc3s2)cc1	-8.8%	1.1	i

The whole of this part, from the start:
SMILES	Hsc70	WNV protease inh	MT1-MMP promoter
CCN(CC)S(=O)(=O)N1CCC(C(=O)NCC2COc3ccccc3O2)CC1 (centres undefined)	0.9%	-0.15	i
O=C(Nc1ccc(N2CCN(Cc3ccccc3Cl)CC2)cc1)c1cccnc1	0.9%	1.3	i
COc1ccc(Cc2nn3c(-c4ccccc4Br)nnc3s2)cc1	-8.8%	1.1	i
Cc1cc(NC(=O)C2CC(c3cccc(Br)c3)=NO2)no1 (centres undefined)	-3.6%	-0.44	i
CCCc1nc2oc3c(NCCOCCO)ncnc3c2c2c1COC(C)(C)C2	3.0%	1.1	i
CCOC(=O)C1=NN(c2ccccc2)C(c2ccccc2)CC1=O (centres undefined)	0.4%	x	i
CC(C)C(NS(=O)(=O)c1cccs1)C(=O)N1CCc2ccccc2C1 (centres undefined)	-3.8%	0.0027	i
O=C(NC1CCCCCC1)c1cccs1	-4.1%	-0.32	i
CC(=O)CCc1ccc2oc(C(=O)O)c(C)c2c1	13%	-0.56	i
Cn1c(N)c(C(=O)COC(=O)C2CCC(C(C)(C)C)CC2)c(=O)n(C)c1=O (centres undefined)	-2.1%	x	i
CC(C)(C)n1ncc2c(=O)n(Cc3ccc(Cl)cc3Cl)cnc21	-9.2%	0.1	i
CCN1CCN(CCCNC(=O)C2c3ccccc3C(=O)N(C)C2c2ccc(OC)cc2)CC1 (centres undefined)	1.0%	0.34	i
O=C(Nc1ccc2c(c1)oc1ccc(S(=O)(=O)N3CCCC3)cc12)C1CC1	2.6%	2	i
COC(=O)CSc1nc2ccccc2c(=O)n1C	-0.1%	0.7	i
O=C(COC(=O)c1cccc(S(=O)(=O)N2CCc3ccccc3C2)c1)NCc1ccco1	-1.1%	-1	i
CN(C)S(=O)(=O)c1ccc(NC(=O)COC(=O)c2ccccn2)cc1	-2.1%	x	i
CC12CC(NC(=O)N1CCc1ccccc1)c1cc(Cl)ccc1O2 (centres undefined)	-0.5%	0.75	i
Cc1sc2ncn(CCn3cnc4sc(C)c(C)c4c3=O)c(=O)c2c1C	-3.0%	0.21	i
O=C(Nc1ccc2c(c1)OCCO2)c1ccc(Br)c(S(=O)(=O)N2CCOCC2)c1	0.5%	1.4	i
CCCCCCN=C(C)C1=C(O)C(C(=O)OC)C(C)(C)CC1=O (centres undefined)	-5.9%	-0.55	i

4 records drawn at random from the list so far, as already listed:
SMILES	Hsc70	WNV protease inh	MT1-MMP promoter
CCN1CCN(CCCNC(=O)C2c3ccccc3C(=O)N(C)C2c2ccc(OC)cc2)CC1 (centres undefined)	1.0%	0.34	i
CC12CC(NC(=O)N1CCc1ccccc1)c1cc(Cl)ccc1O2 (centres undefined)	-0.5%	0.75	i
CCN(CC)S(=O)(=O)N1CCC(C(=O)NCC2COc3ccccc3O2)CC1 (centres undefined)	0.9%	-0.15	i
CC(C)C(NS(=O)(=O)c1cccs1)C(=O)N1CCc2ccccc2C1 (centres undefined)	-3.8%	0.0027	i

Other structures.
SMILES	Hsc70	WNV protease inh	MT1-MMP promoter
O=C1c2ccccc2C(=O)N1CCC(=O)N1CCc2ccccc21	2.3%	0.46	i
O=C1c2ccccc2C(O)(c2ncc[nH]2)N1C1CCCCC1 (centres undefined)	10%	-0.63	i
Cn1c(=O)c2c(nc(CN3CCN(C(=O)c4ccco4)CC3)n2Cc2ccccc2)n(C)c1=O	3.8%	-0.21	i
COCCn1nnnc1C(c1cc2ccc(C)cc2[nH]c1=O)N(Cc1ccco1)Cc1cccs1 (centres undefined)	3.4%	0.02	i
c1ccc(CNc2ncnc3sc4c(c23)CCC4)nc1	0.2%	x	i
Cn1c(CO)nc2cc(N)ccc21	0.5%	-0.22	i
O=C(Nc1ccc(-c2cn3ccsc3n2)cc1)c1ccc(F)c(S(=O)(=O)N2CCOCC2)c1	-5.0%	1.1	i
Cc1onc(-c2c(F)cccc2Cl)c1C(=O)Nc1nc2c(s1)CCCC2	7.0%	-0.46	i
CCOc1ccc(CNC(=O)C2CC(=O)N(C3CCCC3)C2)cc1OC (centres undefined)	3.1%	0.03	i
COc1ccc(CNC(=O)C(c2ccc(C)o2)N(Cc2cccs2)C(=O)Cc2cccs2)cc1 (centres undefined)	4.2%	x	i
CCOc1ccc(-c2nnc3n2N=C(c2ccc(OC)cc2)CS3)cc1	-0.5%	-1.5	i
Cc1ccc(NC(=O)C(C)Sc2nnc(-c3cccnc3)n2-c2ccccc2)cc1 (centres undefined)	6.1%	x	i
CCC1=Nc2ccccc2-c2nnc(SC)nc2O1	-6.0%	-0.53	i
Nc1c(C(=O)NCCc2ccccc2)nnn1Cc1ccccc1	0.6%	-1.2	i
O=C(Nc1ccc2c(c1)OC1(CCCC1)O2)C1CC1	-1.0%	0.08	i
CCCn1c(SCC(=O)N2c3ccc(F)cc3CCC2C)nnc1-c1ccccn1 (centres undefined)	3.4%	x	i
Cc1cc(=O)oc(C)c1C(=O)NCc1ccccc1	-0.3%	x	i
CCOC(=O)N1CCC(NC(=O)c2cc3c(-c4cccc(OC)c4)nn(C)c3s2)CC1	-3.2%	0.41	i
CC(C)(C)NS(=O)(=O)c1ccc(CCC(=O)NCc2ccco2)cc1	-4.7%	0.48	i
COc1cc(=O)[nH]c(=O)n1C(=O)Cc1ccccc1	-0.4%	0.33	i

Quoted from the listing:
`Cc1cc(=O)oc(C)c1C(=O)NCc1ccccc1` @ Hsc70 = -0.3%
`COc1cc(=O)[nH]c(=O)n1C(=O)Cc1ccccc1` @ WNV protease inh = 0.33

Gathered by group, those above with an aryl thioether with sulfur outside any ring.
SMILES	Hsc70	WNV protease inh	MT1-MMP promoter
COC(=O)CSc1nc2ccccc2c(=O)n1C	-0.1%	0.7	i
Cc1ccc(NC(=O)C(C)Sc2nnc(-c3cccnc3)n2-c2ccccc2)cc1 (centres undefined)	6.1%	x	i
CCC1=Nc2ccccc2-c2nnc(SC)nc2O1	-6.0%	-0.53	i
CCCn1c(SCC(=O)N2c3ccc(F)cc3CCC2C)nnc1-c1ccccn1 (centres undefined)	3.4%	x	i

Continuation:
SMILES	Hsc70	WNV protease inh	MT1-MMP promoter
Cc1cc(Nc2nnnn2-c2ccccc2)n(-c2ccccc2)n1	0.7%	x	i
Cc1nc2ccc(F)cc2cc1C(=O)NCC1CCCO1 (centres undefined)	-7.3%	0.14	i
Cc1ccc(S(=O)(=O)c2c(N)n(NC(=O)C3CC3)c3nc4ccccc4nc23)cc1	-1.0%	1.2	i
Cc1ccc(CNC(=O)C(C)OC(=O)c2ccco2)cc1 (centres undefined)	7.0%	0.41	i
CCCCn1c(-c2ccncc2)nc2c1c(=O)[nH]c(=O)n2CC(C)C	3.6%	x	i
Cc1cc(OCC(=O)Nc2cc(-c3nn4c(C)nnc4s3)ccc2C)ccc1Cl	-7.2%	-1.4	i
CCOC(=O)/C=C1\SCC(=O)N1CC(=O)c1ccc[nH]1	-3.8%	-0.8	i
Cc1c(C(=O)OCC(=O)N(CCC#N)c2ccccc2)oc2c1ccc1ccccc12	2.4%	-0.43	i
CCOc1ccc(NC2=NCC(=O)N2CCc2ccccc2)cc1	4.9%	1.7	i
CCOC(=O)Cn1c(=N)n(Cc2ccccc2)c2ccccc21	-5.0%	0.28	i
O=C1CCCN1CCCNc1ncnc2c1cnn2-c1ccc(Cl)cc1	118%	-0.78	i
COc1ccc(-c2noc(CCCC(=O)NCc3ccco3)n2)cc1OC	-2.0%	-0.71	i
CNc1nc(NCCOC23CC4CC(CC(C4)C2)C3)nc(OCC(F)(F)F)n1	0.8%	x	i
O=C(Cn1cc2c(n1)CCCCC2)NCc1ccccn1	12%	1.2	i
O=C(O)CC(=O)NC12CC3CC(CC(C3)C1)C2	1.5%&1.7%	x	i
COc1ccc(OCc2ccc(C(=O)O)cc2)cc1	8.0%	1.2	i
Cc1ccc(C(=O)c2c(C)oc3c2C(=O)C(=O)c2ccccc2-3)cc1	-1.2%	x	i
O=C1CCN(S(=O)(=O)c2ccccc2)C2CCCCC12 (centres undefined)	-3.0%	0.34	i
O=C(C1CCN(S(=O)(=O)c2cccc3cccnc23)CC1)N1CCCC1	4.1%	0.64	i
Cc1cccc(C(=O)N2CCC(n3nnc4cc(F)ccc43)CC2)c1	2.9%	-0.01	i
CCOc1ccc(S(=O)(=O)NCCOC)cc1C	5.3%	x	i
CCCCCn1c(=O)[nH]c2cc(C(=O)NCCN(CC)CC)ccc2c1=O	-6.4%	0.37	i
COC(=O)c1cc(NC(=O)Cc2coc3cc(OC)ccc23)cc(C(=O)OC)c1	-0.6%	0.23	i
NC(=O)c1nc(C2CCCCC2)nc2c1[nH]c(=O)n2-c1ccc(F)cc1	-0.3%	0.93	i
CC1CCCCN1CCCn1c(=S)[nH]c2ccccc2c1=O (centres undefined)	-5.8%	0.17	i
COC(=O)CN(c1cccc(OC)c1)S(C)(=O)=O	1.2%	-0.31	i
O=C(CCCCCn1c(SCC(=O)c2ccccc2)nc2ccccc2c1=O)NCc1ccco1	-7.1%	-0.49	i
O=C(c1cccs1)N1CCN(CCc2ccccc2)CC1	-6.2%	-0.4	i
Cc1cc(=O)n2[nH]c(COc3ccccc3)nc2n1	2.9%	-0.52	i
COCCNC(=O)CNS(=O)(=O)c1ccc2nc(C)sc2c1	-1.9%	0.16	i
CCc1c(C)nc2ncnn2c1NCCc1ccc(OC)cc1	1.0%	0.49	i
Cc1cnc(NC(=O)C2COc3ccccc3O2)s1 (centres undefined)	4.4%	x	0.61µM*
COc1ccc(N2CCCn3c2nc2c3c(=O)n(Cc3ccc(F)cc3)c(=O)n2C)c(OC)c1	-0.7%	-0.98	i
CCC(C)NC(=O)C1CCCN(c2nc(C)cc(OC)n2)C1 (centres undefined)	-0.5%	x	i
COc1ccccc1N(CC(O)CN1C(=O)NC(C)(C)C1=O)S(=O)(=O)c1ccc(C)cc1 (centres undefined)	4.2%	0.52	i
COc1ccc(Cn2c(C3CC3)nc3ccc(NC(=O)c4ccco4)cc3c2=O)cc1	-5.2%	-1.4	i
O=C(Oc1ccc2ccccc2c1Cl)N1CCCC1	0.6%	-0.46	i
O=C(COc1cccc(Cl)c1)Nc1nc(-c2ccc(S(=O)(=O)N3CCOCC3)cc2)cs1	-9.6%	x	i
COc1cccc(-c2cn3nc4c(nc3n2)CCCC4)c1	-13%	-0.88	+
CCSc1nnc2c(n1)[nH]c1c(C)cccc12	4.5%	-0.29	i
COc1ccc2nc(NC(=O)CCNS(=O)(=O)c3ccc4c(c3)oc(=O)n4C)sc2c1	1.9%	0.8	i
COC(=O)c1ccc(C2/C(=C(\O)c3cccc(OC)c3)C(=O)C(=O)N2CCCN2CCOCC2)cc1 (centres undefined)	-3.2%	-1.6	i
CCn1nc(C(=O)OCC(=O)NCCN2C(=O)CSC2=O)c2ccccc2c1=O	-4.0%	-0.66	i
O=C(NC1=NCCS1)C1COc2ccccc2O1 (centres undefined)	-4.6%	0.63	+
NC(=O)c1ccc(-n2nnnc2Oc2ccccc2C(=O)N2CCOCC2)cc1	0.4%	0.1	i
CCNC(=O)CN(Cc1ccccc1)S(=O)(=O)c1ccccc1	-6.4%	2.2	i
Cc1ccc(CSc2nnc(-c3ccccn3)n2C)cc1	-3.6%	1.2	i
COc1cccc(C2C(C(=O)c3sc(C)nc3C)=C(O)C(=O)N2CCN2CCOCC2)c1OC (centres undefined)	-0.7%	0.02	i
O=C(OCc1ccccc1)c1ccc(Br)o1	2.1%	0.88	i
O=c1oc2ccccc2c(O)c1C=NCc1ccccn1	-0.1%	1.2	i

Next section:
SMILES	Hsc70	WNV protease inh	MT1-MMP promoter
COc1ccc(-c2cc(C(N)=O)nc(N3CCCCCC3)n2)cc1	-3.2%	-0.81	i
CCN(CC)CCCNC(=O)Cc1c(C(=O)O)n(C)c2ccccc12	-1.0%	-0.85	i
COc1cc(NC(=O)c2cc(C)on2)cc(OC)c1OC	8.0%	1.2	i
COc1cccc(-n2nnnc2SCC(=O)NC2CCCC2)c1	1.7%	x	i
O=c1[nH]c(CN2CCc3ccccc32)nc2scc(-c3cccs3)c12	-6.8%	-0.32	i
CC(C)(C)c1ccc(S(=O)(=O)NCc2ccc(C(=O)N3CCOCC3)cc2)cc1	5.7%	x	i
C=COC(=O)CSc1snc(SCC(=O)OC)c1C#N	-5.0%	0.14	i
Cc1cccc(C)c1NC(=O)Cn1c(CN2CCCCC2)nc2ccccc2c1=O	-4.6%	x	i
CCOc1ccc(N(CC(=O)NC2CCCC2)S(=O)(=O)c2c(C)[nH]c(=O)[nH]c2=O)cc1	-2.2%	-0.26	i
CC1(C)NC(=O)N(CCOc2ccc3c(c2)CCC3)C1=O	-5.4%	0.53	i
CC(C)NC(=O)c1cc(=O)n(C)c(=O)n1C	-1.2%	2	i
COc1ccc(N(CC(=O)Nc2cccc(C(F)(F)F)c2)S(C)(=O)=O)cc1	3.6%	x	i
COc1cccc2c(=O)n(CC(=O)N3CCCCCC3)ccc12	-1.3%	1.2	i
O=C(COc1ccc(S(=O)(=O)N2CCCCC2)cc1)NC1CCCCC1	2.2%	-0.89	i
CCN1C(=O)N(CN2CCOCC2)C2C1N(CN1CCOCC1)C(=O)N2CC (centres undefined)	5.0%	0.73	i
Cc1ccccc1CN1CCN(CC(=O)NCc2ccccn2)C1=O	8.2%	-0.28	i
COc1cc(Br)cc(CN2CCN(C/C=C/c3ccccc3)CC2)c1O	0.7%	0.71	i
